Ecoli rRNA inh = inhibitors of bacterial rRNA selective over humanized ribosomes; GFP signal change (wild-type ribosome), % (test concentration not listed); E. coli WT GFP vs humanized-ribosome RFP mutants, fluorescence, 24 h; active compounds read low; DMSO median 0, no signal -100; 350,000 tested, 1.6% active;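 active = significant combined selectivity score with lowered wild-type GFP, culture density cut under 30%, mutant RFP and density less affected; inactive = any of these conditions unmet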; note: one replicate is shown; some compounds called inactive have numbers as strong as hits
Ecoli rRNA inh OD600 = second read-out of Ecoli rRNA inh, no call of its own (marks repeat the call); OD600 change, %; measured here: OD600 growth;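 optical density of the mix in the first replicate; 0 = DMSO median and -100 = no signal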
Ecoli rRNA inh RFP = second read-out of Ecoli rRNA inh, no call of its own (marks repeat the call); RFP signal change, %; measured here: RFP humanized mutant strains;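 first replicate; 0 = DMSO median and -100 = no signal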
* hit, by the source's call; & = joins results of further samples. A portion of the library; rates above refer to the full screens.

SMILES | Ecoli rRNA inh | Ecoli rRNA inh OD600 | Ecoli rRNA inh RFP
O=C(C[C@H]1C[C@@H]2c3cc(NS(=O)(=O)c4ccccc4)ccc3O[C@@H]2[C@H](CO)O1)N1CCCCC1 | 1.3 | -4.7 | -2.2
C[C@H]1CN(C)C(=O)c2cc(N)ccc2O[C@H]1CN(C)C(=O)OC(C)(C)C | 0.3 | 3.1 | 0.8
COc1ccc2c3c(n(C)c2c1)[C@H](CO)N(CC1CC1)CC31CN(Cc2ccc(F)cc2)C1 | 2.3 | 0.9 | 4.2
Cc1ccc(S(=O)(=O)N(C)C[C@H]2OCCCC[C@@H](C)Oc3ccc(NS(=O)(=O)c4ccc(F)cc4)cc3C(=O)N([C@@H](C)CO)C[C@H]2C)cc1 | -0.7 | 0.1 | 2.2
C[C@@H]1CCCCO[C@H](CN(C)CC2CCCCC2)[C@H](C)CN([C@H](C)CO)C(=O)c2cc(NC(=O)c3ccccc3)ccc2O1 | -3.6 | 0.6 | 0.5
C[C@@H]1CN([C@H](C)CO)C(=O)Cc2cc(NC(=O)CCCCCC(=O)Nc3ccccc3N)ccc2O[C@H]1CN(C)C(=O)Nc1cccc2ccccc12 | 3.7 | 8.0 | 1.2
COc1ccc(S(=O)(=O)N2C[C@@H](O)COC[C@H]3O[C@@H](CC(=O)NCCN4CCCCC4)CC[C@@H]32)cc1 | 2.1 | 10.4 | 1.4
COc1ccc(C#Cc2cnc3c(c2)C(=O)N([C@H](C)CO)C[C@H](C)[C@H](CN(C)S(=O)(=O)c2ccc(F)cc2)O3)cc1OC | -1.5 | 6.1 | 0.1
O=C(CCCN1C(=O)C(=Cc2ccc3c(c2)OCO3)SC1=S)Nc1ccc(C(=O)O)c(O)c1 | -26.2* | -10.3* | -3.7*
COCOCCn1cc(CN2CCS(=O)(=O)N(Cc3ccc(-c4ccc(Cl)nc4)cc3)C(CC(C)C)C2=O)nn1 (stereo unspecified) | -22.6 | -19.8 | -1.0
COC(=O)C[C@@H]1CC[C@@H]2[C@@H](COc3ccc(NC(=O)c4cccc(F)c4)cc3C(=O)N2C)O1 | -1.6 | 0.3 | -0.2
COC(=O)c1cc(C)nc(Nc2nc(C(N)Cc3ccc(F)cc3)cs2)n1 (stereo unspecified) | 2.6 | -6.8 | 10.5
CO[C@@H]1CN(C)C(=O)c2ccc(NC(=O)C3CC3)cc2OC[C@@H](C)N(Cc2cccnc2)C[C@H]1C | -0.2 | -3.8 | -6.0
CO[C@@H]1CN(C)C(=O)c2ccc(NC(=O)C3CC3)cc2OC[C@@H](C)N(C(=O)Cc2ccccn2)C[C@H]1C | 0.8 | 0.9 | -3.6
CC(C)NC(=O)N(C)C[C@H]1Oc2ccc(NC(=O)C3CC3)cc2CC(=O)N([C@@H](C)CO)C[C@@H]1C | 3.7 | 7.1 | -2.8
CCCNC(=O)c1cc2c(c(-c3cccc(-c4ccc(C#N)cc4)c3)n1)[C@@H](CCO)N(C(=O)CC)C2 | -28.9* | -16.6* | 9.4*
COc1ccc(C#Cc2ccc([C@H]3[C@@H](CO)N4C(=O)CN(C(=O)c5cccnc5)C[C@@H]34)cc2)cc1 | -2.4 | -3.2 | -0.5
CN1CCN(C(=O)C[C@H]2CC[C@@H](NC(=O)Cc3ccccn3)[C@@H](CO)O2)CC1 | 2.0 | -4.9 | -2.9
CC1=C(C(=O)N(C(C)C)C(C)C)CC(CC(=O)NC(c2ccccc2)c2ccccc2)C(=O)N1Cc1ccc(C(C)(C)C)cc1 (stereo unspecified) | 21.8 | 14.3 | 3.1
CN(c1ccc(-c2csc(NC(=O)CCCc3nc4ccccc4c(=O)[nH]3)n2)cc1)S(C)(=O)=O | -6.2 | -11.0 | 1.7
C[C@H](CO)N1C[C@H](C)[C@@H](CN(C)C(=O)Nc2cccc3ccccc23)Oc2ccc(NC(=O)Nc3ccc(C(F)(F)F)cc3)cc2C1=O | 6.2 | 10.9 | -0.6
C[C@@H]1CCCCO[C@H](CN(C)Cc2ccncc2)[C@@H](C)CN([C@@H](C)CO)C(=O)c2cc(NC(=O)Nc3ccccc3)ccc2O1 | -1.0 | -9.8 | -0.8
C[C@@H]1CN([C@@H](C)CO)C(=O)c2cc(NC(=O)CCC(F)(F)F)ccc2O[C@@H](C)CCCCO[C@H]1CN(C)Cc1ccc2c(c1)OCO2 | 0.2 | 0.4 | -1.4
CN1CCN(C(=O)C[C@H]2CC[C@H]3[C@@H](COC[C@@H](O)CN3Cc3cccc(F)c3)O2)CC1 | 2.3&9.2 | 13.1&11.4 | -3.1&1.7
COc1ccc(S(=O)(=O)N(C)C[C@@H]2Oc3ccc(NC(=O)Nc4ccc5c(c4)OCO5)cc3C(=O)N([C@H](C)CO)C[C@@H]2C)cc1 | -1.1 | -8.9 | 0.6

Part of the list above in order of SMILES length, smallest number first:
SMILES | Ecoli rRNA inh | Ecoli rRNA inh OD600 | Ecoli rRNA inh RFP
CN1CCN(C(=O)C[C@H]2CC[C@@H](NC(=O)Cc3ccccn3)[C@@H](CO)O2)CC1 | 2.0 | -4.9 | -2.9
COc1ccc2c3c(n(C)c2c1)[C@H](CO)N(CC1CC1)CC31CN(Cc2ccc(F)cc2)C1 | 2.3 | 0.9 | 4.2
CO[C@@H]1CN(C)C(=O)c2ccc(NC(=O)C3CC3)cc2OC[C@@H](C)N(Cc2cccnc2)C[C@H]1C | -0.2 | -3.8 | -6.0
O=C(C[C@H]1C[C@@H]2c3cc(NS(=O)(=O)c4ccccc4)ccc3O[C@@H]2[C@H](CO)O1)N1CCCCC1 | 1.3 | -4.7 | -2.2
COc1ccc(S(=O)(=O)N2C[C@@H](O)COC[C@H]3O[C@@H](CC(=O)NCCN4CCCCC4)CC[C@@H]32)cc1 | 2.1 | 10.4 | 1.4
CC1=C(C(=O)N(C(C)C)C(C)C)CC(CC(=O)NC(c2ccccc2)c2ccccc2)C(=O)N1Cc1ccc(C(C)(C)C)cc1 (stereo unspecified) | 21.8 | 14.3 | 3.1
C[C@@H]1CCCCO[C@H](CN(C)CC2CCCCC2)[C@H](C)CN([C@H](C)CO)C(=O)c2cc(NC(=O)c3ccccc3)ccc2O1 | -3.6 | 0.6 | 0.5
C[C@@H]1CCCCO[C@H](CN(C)Cc2ccncc2)[C@@H](C)CN([C@@H](C)CO)C(=O)c2cc(NC(=O)Nc3ccccc3)ccc2O1 | -1.0 | -9.8 | -0.8
C[C@@H]1CN([C@H](C)CO)C(=O)Cc2cc(NC(=O)CCCCCC(=O)Nc3ccccc3N)ccc2O[C@H]1CN(C)C(=O)Nc1cccc2ccccc12 | 3.7 | 8.0 | 1.2

The list continues.
SMILES | Ecoli rRNA inh | Ecoli rRNA inh OD600 | Ecoli rRNA inh RFP
COC(=O)[C@@]12C[C@@H](CC(=O)NCc3ccccc3)C(=O)N(Cc3cccc4ccccc34)C1=CCC(C)(C)C2 | -4.0 | -9.6 | -3.8
COc1cccc(C(=O)Nc2ccc3c(c2)C(=O)N(C)C[C@H](OC)[C@@H](C)CN(C(C)=O)[C@@H](C)CO3)c1 | 0.2 | -1.3 | 0.5
COCC(=O)N1CCC2(CC1)CN(C(=O)Nc1ccccc1F)[C@@H](CO)c1[nH]c3cc(OC)ccc3c12 | 2.1 | 5.8 | -1.4
C[C@@H]1CN([C@H](C)CO)C(=O)c2cc(NC(=O)Nc3cccc4ccccc34)ccc2O[C@@H](C)CCCCO[C@@H]1CN(C)S(=O)(=O)c1cn(C)cn1 | -0.6 | 4.9 | 0.7
O=C(C[C@H]1C=C[C@@H](NC(=O)CN2CCOCC2)[C@H](CO)O1)NC1CCC1 | 0.5 | -0.6 | -0.2
CCOC(=O)CNC(=O)N(C)[C@H]1C[C@H]2c3[nH]c4ccccc4c3CCN2C(=O)[C@H]1[C@H](C)O | -0.7 | -0.3 | -0.9
CNC[C@H]1OCCCC[C@H](C)Oc2ccc(NC(=O)Nc3c(C)noc3C)cc2C(=O)N([C@H](C)CO)C[C@H]1C | 3.6 | 4.5 | -1.3
CO[C@H]1CN(C)C(=O)c2ccc(NC(=O)Nc3cc(F)ccc3F)cc2OC[C@@H](C)NC[C@@H]1C | 1.3 | -3.6 | 1.0
COCC(=O)N1[C@@H](CO)[C@H](c2ccccc2)[C@@H]1CN(C)C(=O)c1ccncc1 | 2.4 | 0.4 | -4.4
Cc1ccc(S(=O)(=O)Nc2cccc3c2O[C@@H](CN(C)C(=O)Nc2ccc(C(F)(F)F)cc2)[C@H](C)CN([C@@H](C)CO)C3=O)cc1 | -2.7 | -3.2 | -2.8
COc1cc(OC)c(N(C)S(=O)(=O)c2cccc(C(=O)NCc3cccs3)c2)cc1Cl | 2.4 | -5.4 | 1.0
O=C(NC1CCCCC1)c1ccc2ccccc2c1O | -48.0 | -76.2 | -18.8
Cc1noc(C)c1S(=O)(=O)N(C)C[C@H]1Oc2ccc(NC(=O)C3CCCCC3)cc2CC(=O)N([C@@H](C)CO)C[C@@H]1C | -1.9 | 2.6 | -1.0
C[C@@H]1CN([C@@H](C)CO)C(=O)c2cc(-c3cccc(F)c3)cnc2O[C@H]1CN(C)C(=O)C1CCOCC1 | 1.6 | 4.1 | -5.3
C[C@@H]1CN([C@@H](C)CO)C(=O)c2cc(NC(=O)CCCN(C)C)ccc2O[C@H]1CN(C)S(=O)(=O)c1ccccc1 | 1.7 | -0.3 | -0.4
CO[C@H]1CN(C)C(=O)c2ccc(NS(=O)(=O)c3ccc(Cl)cc3)cc2OC[C@@H](C)NC[C@@H]1C | 2.2 | -1.2 | -2.2
COc1cccc(NC(=O)N2CC(=O)N3[C@H](CO)[C@@H](c4ccc(C#CCC5CCCC5)cc4)[C@H]3C2)c1 | 2.0 | 9.5 | 3.5
CCn1c(CC(=O)Nc2ccccc2F)nnc1SCC(=O)NC1=NCCS1 | 15.9 | 14.3 | 1.2
CCS(=O)(=O)N1CC(=O)N2[C@H](CO)[C@@H](c3ccc(-c4ccccc4)cc3)[C@H]2C1 | 3.0 | 12.6 | -2.4
C[C@@H]1CN([C@@H](C)CO)S(=O)(=O)c2ccc(-c3ccncc3)cc2O[C@@H]1CN(C)Cc1ccncc1 | 2.5 | 4.1 | -3.5
COc1ccc(CN(C)C[C@H]2OCCCC[C@H](C)Oc3ccc(NC(=O)Nc4cccc5ccccc45)cc3C(=O)N([C@H](C)CO)C[C@H]2C)cc1 | 1.3 | 0.2 | 8.5
COc1ccc(NC(=O)Nc2cccc3c2O[C@@H](CN(C)C(=O)NC2CCCCC2)[C@@H](C)CN([C@@H](C)CO)C3=O)cc1 | -4.6 | 0.1 | 0.8
C[C@H](O)C#Cc1ccc2c(c1)O[C@@H](CN(C)Cc1cncnc1)[C@@H](C)CN([C@@H](C)CO)S2(=O)=O | 4.2 | 9.0 | -0.3
COc1ccc(S(=O)(=O)Nc2ccc3c(c2)C(=O)N([C@H](C)CO)C[C@@H](C)[C@@H](CN(C)C(=O)Cc2ccccc2)OCCCC[C@@H](C)O3)cc1 | -2.7 | -8.3 | 0.4
CN1CCN(C(=O)C[C@H]2C[C@H]3c4cc(NC(=O)C5CCC5)ccc4O[C@H]3[C@H](CO)O2)CC1 | 5.9 | 3.0 | 0.1
(listing goes on)
SMILES | Ecoli rRNA inh | Ecoli rRNA inh OD600 | Ecoli rRNA inh RFP
CN(C)C(=O)c1cccc(-c2ccc([C@H]3[C@H](CO)N4C(=O)CN(C(=O)Cc5ccccc5)C[C@@H]34)cc2)c1 | 6.8 | 11.5 | 5.8
CC(=O)N1CC2(C1)[C@@H](c1ccccc1)[C@@H](CO)N2Cc1cc(F)ccc1F | 1.2 | 2.9 | 0.7
Cc1ccccc1S(=O)(=O)N1CCCCN2[C@H](CO)[C@H](c3ccc(-c4cccc(F)c4)cc3)[C@@H]2C1 | -3.8 | 5.1 | -0.8
CN1C(=O)c2cc(NC(=O)C3CCC3)ccc2OC[C@@H]2O[C@@H](CC(=O)NCC3CCCCC3)CC[C@@H]21 | -2.1 | -7.6 | -1.2
C[C@@H]1CN([C@@H](C)CO)C(=O)c2cc(-c3ccccc3F)cnc2O[C@@H]1CN(C)C(=O)NC1CCCCC1 | -4.9 | 8.8 | -2.2
C[C@@H]1CN([C@@H](C)CO)C(=O)c2cc(NS(=O)(=O)c3ccc(Cl)cc3)ccc2O[C@@H](C)CCCCO[C@H]1CN(C)C(=O)CCCN(C)C | 1.6 | 4.0 | -1.0
CO[C@H]1CN(C)C(=O)c2ccc(NC(C)=O)cc2OC[C@H](C)N(Cc2ccc(F)cc2)C[C@@H]1C | -5.7 | -8.9 | 1.4
Cc1ccc(S(=O)(=O)Nc2ccc3c(c2)C(=O)N([C@@H](C)CO)C[C@@H](C)[C@@H](CN(C)CC2CCCCC2)OCCCC[C@H](C)O3)cc1 | -7.8 | -10.6 | 17.1
CCNC(=O)C[C@H]1CC[C@H]2[C@H](COc3ccc(NC(=O)c4ccc5c(c4)OCO5)cc3C(=O)N2C)O1 | 1.4 | -3.6 | 1.6
CCNC(=O)C[C@@H]1CC[C@@H]2[C@H](COc3ccc(NC(=O)Nc4ccc(Cl)cc4)cc3C(=O)N2C)O1 | -0.6 | -10.8 | -0.9
Cc1cccc(-c2cc(N3CCCN(C)CC3)n3nccc3n2)c1 | 5.1 | 22.7 | 48.0
O=C(C[C@H]1CC[C@@H]2[C@H](COC[C@@H](O)CN2Cc2cc(F)ccc2F)O1)NCc1ccccc1 | -4.6 | -5.6 | -0.2
COCC(=O)N(C)C[C@@H]1Oc2cc(-c3ccc(C#N)cc3)ccc2S(=O)(=O)N([C@H](C)CO)C[C@@H]1C | -6.3 | -2.8 | -0.9
COc1ccc(NC(=O)N(C)C[C@H]2Oc3ccc(NS(=O)(=O)c4ccc(Cl)cc4)cc3CC(=O)N([C@@H](C)CO)C[C@@H]2C)cc1 | 2.2 | 7.3 | -4.9
CC(C)NC(=O)N(C)C[C@H]1Oc2ncc(-c3cccc(C#N)c3)cc2C(=O)N([C@H](C)CO)C[C@@H]1C | 6.6 | 0.0 | -2.9
O=C([C@H]1[C@H](CO)[C@H]2Cn3c(cccc3=O)[C@@H]1N2S(=O)(=O)c1ccccc1F)N1CCCCC1 | -0.6 | 8.2 | -0.6

Assay outcomes: PubChem BioAssay, Broad Institute
